# Source: PubChem
# PABP FP inh: PABP poly(A) RNA binding inhibitors, primary screen, biochemical, fluorescence polarization, uHTS. inhibition, % at 35 µM. 290,000 tested, 1% active. Polyadenylate-binding protein 1 (Homo sapiens), P11940;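 active = 50% or more with normal probe brightness, or confirmed in later tests; inconclusive = above 50% with abnormal brightness, or retests that disagree; inactive = below 50% or failed in later tests; about a fifth of its hits are not listed in these tables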;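 note: calls also rest on retests at 20 µM and on dose response follow-up; controls were probe without protein and protein plus probe with vehicle; some compounds called inactive have numbers as strong as hits; many hits fall short of the cut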
# Target sequence (P11940 whole entry, looked up): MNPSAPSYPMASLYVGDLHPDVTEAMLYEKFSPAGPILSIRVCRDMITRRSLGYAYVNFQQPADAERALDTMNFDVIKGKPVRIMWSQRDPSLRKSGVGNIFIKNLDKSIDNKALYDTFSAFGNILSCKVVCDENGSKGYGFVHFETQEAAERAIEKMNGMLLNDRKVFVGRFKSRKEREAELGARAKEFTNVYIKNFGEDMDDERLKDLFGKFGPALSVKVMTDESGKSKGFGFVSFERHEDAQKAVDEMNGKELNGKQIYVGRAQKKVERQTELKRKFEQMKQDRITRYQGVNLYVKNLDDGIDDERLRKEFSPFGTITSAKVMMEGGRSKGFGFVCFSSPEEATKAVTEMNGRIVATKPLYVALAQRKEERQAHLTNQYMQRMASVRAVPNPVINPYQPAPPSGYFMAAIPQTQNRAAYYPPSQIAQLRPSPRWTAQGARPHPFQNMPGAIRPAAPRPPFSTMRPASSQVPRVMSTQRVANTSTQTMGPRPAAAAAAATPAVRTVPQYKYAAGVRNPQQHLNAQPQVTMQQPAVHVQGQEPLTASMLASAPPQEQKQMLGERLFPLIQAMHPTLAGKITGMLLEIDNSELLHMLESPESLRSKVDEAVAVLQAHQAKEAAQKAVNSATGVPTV
# Env fusion inh: inhibitors of HIV-1 Env-driven cell-cell fusion, primary screen, HeLa-JRFL effector, CEM21 target cells, luciferase; inhibition, % at 12.3 µM; 360,000 tested, 1.1% active; AID 651610, 2012;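 active = mean replicate inhibition score of at least 50 and every replicate individually at or above 50; inconclusive = only one of the two criteria met; inactive = mean below 50 and not all replicates reaching 50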;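 note: 0% = plate neutral controls and 100% = maraviroc near 300 nM; one replicate is shown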
# CSC inhib: cancer stem cell viability inhibitors, primary screen, luminescence. cancer stem cell-like cells viability. inhibition, % at 7.5 µM. AID 2717, 2010. 300,000 tested, 1.1% active;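 active = mean at 75% or more and at least half the replicates too; inconclusive = mean and replicates disagree; tested in HMLE shEcad cells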;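 note: 0% = median of negative and 100% = median of positive control wells; the first replicate is given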
# Rce1 inhib: yeast Rce1p protease inhibitors, primary screen, biochemical, fluorescence, cell-free homogeneous; CAAX prenyl protease 2 (Saccharomyces cerevisiae (strain ATCC 204508 / S288c)), Q03530; yeast membranes, quenched prenylated peptide cleavage fluorescence; calls only; 290,000 tested, 0.27% active; AID 2563, 2010;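 active = fall in fluorescence gain of 50% or more versus controls, with final raw signal at or below 3038400; inconclusive = same 50% fall but final raw signal above 3038400; inactive = fall in fluorescence gain under 50%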;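 note: plate controls were neutral control wells for no effect and wells lacking membranes for full effect; tested at 10 µM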
# Target sequence (Q03530 whole entry, looked up): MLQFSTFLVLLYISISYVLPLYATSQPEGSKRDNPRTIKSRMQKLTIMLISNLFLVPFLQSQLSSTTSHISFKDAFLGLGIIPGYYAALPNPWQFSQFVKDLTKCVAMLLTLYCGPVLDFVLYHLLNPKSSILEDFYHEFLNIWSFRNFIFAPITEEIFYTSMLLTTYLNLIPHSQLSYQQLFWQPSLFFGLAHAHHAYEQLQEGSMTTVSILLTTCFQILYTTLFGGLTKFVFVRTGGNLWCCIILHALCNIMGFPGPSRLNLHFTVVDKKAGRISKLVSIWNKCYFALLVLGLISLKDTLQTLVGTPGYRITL
# Yeast UUG start: modulators of yeast start codon fidelity, primary screen, whole organism, S. cerevisiae, single point, plate reader; activity score, % at 18.7 µM; 350,000 tested, 0.13% active; S. cerevisiae UUG-firefly luciferase reporter, luminescence/redox ratio; AID 602363, 2012;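 active = replicate mean at a twofold rise or more, about +100% in these data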;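 note: firefly luciferase made from a UUG start codon reports start codon fidelity; reporter light over untreated wells divided by growth signal over untreated wells; some hits fall short of that in this replicate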
# MT1-MMP act inh: blockers of MT1-MMP proenzyme processing, primary screen, HT1080 RFP-PRO-GFP cells, GFP/RFP fluorescence. AID 651647, 2012. GFP/RFP ratio change, % at 20 µM. 360,000 tested, 0.061% active. Matrix metalloproteinase-14 (Homo sapiens), P50281. GFP/RFP ratio fluorescence, overnight; percent of plate control window, DMSO zero;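 active = GFP/RFP ratio change of at least 30% with cell ATP level not reduced by more than half and red fluorescence within 50% of control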; note: strong numbers were not always called active
#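 Assay system: HT1080 RFP-PRO-GFP cells | Dosing: 20 µM single dose, 1% DMSO | Incubation: Cells overnight before dosing, compound overnight, 37 °C, 5% CO2 | Evaluation: GFP/RFP fluorescence ratio | Control set: DMSO-only wells and HT1080 RFP-L50D-GFP cell wells as references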
# eIF4H FP inh: human eIF4H binding inhibitors, primary screen, translation initiation inhibitor project, biochemical, uHTS, fluorescence polarization; Eukaryotic translation initiation factor 4H (Homo sapiens), Q15056; eIF4H fluorescence polarization binding assay; inhibition, % at 35 µM; 290,000 tested, 0.94% active; AID 2012, 2009;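 active = 50% or more with normal probe brightness, or confirmed in later tests; inconclusive = above 50% with abnormal brightness, or retests that disagree; inactive = below 50% or failed in later tests; about a fifth of its hits are not listed in these tables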;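 note: calls also rest on retests at 20 µM and on dose response follow-up; 0% = protein and probe with vehicle and 100% = probe without protein; strong numbers were not always called active; many hits fall short of the cut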
# MT1-MMP act inh RFP: recorded beside MT1-MMP act inh, whose call it bears; RFP signal change, %; measured here: RFP expression control read;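 0 = vehicle wells; hits needed this value within 50% of zero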
# * hit, by the source's call; i = inactive; ? = inconclusive; . = not tested or not shown. An excerpt; rates above refer to the full screens.
SMILES,PABP FP inh,Env fusion inh,CSC inhib,Rce1 inhib,Yeast UUG start,MT1-MMP act inh,MT1-MMP act inh RFP,eIF4H FP inh
Cc1ccc(C)c(S(=O)(=O)N2CCCC2CNC(=O)c2ccc([N+](=O)[O-])cc2)c1 (stereo not given),.,.,-14.0,i,.,4.7,-17.8,.
Cc1cc(=O)oc2c3c(cc(OCC(=O)N[C@H](C(=O)O)c4ccccc4)c12)OC(C)(C)CC3,11.8,.,-11.3,?,-1.5,0.2,-1.2,1.0
Cc1ccc(C)c(NC(=O)NNS(=O)(=O)c2ccc(C)c(C)c2)c1,6.2,22.2,-0.4,i,0.2,-2.7,-1.1,-3.8
COC(=O)NCc1ccc2c(c1)OCO2,3.1,-24.7,2.9,i,.,-3.5,-2.0,2.6
CCc1ccccc1NNC(=O)c1snnc1C,1.8,-3.0,45.5,i,-14.0,-0.3,4.4,-2.1
CCOc1ccc2nc(NC(=O)c3c([N+](=O)[O-])cnn3CC)sc2c1,-6.5,-6.4,-4.7,i,-17.1,5.7,-0.4,0.4
COc1cccc(N2CCN(C(=O)Nc3ccc4c(c3)NC(=O)CO4)CC2)c1,-2.5,18.6,1.4,i,1.9,0.7,1.0,-2.4
C[C@H](NC(=O)OCc1ccccc1)c1nnc([C@H](Cc2ccccc2)NC(=O)OC(C)(C)C)o1,-5.7,30.9,8.1,i,-11.2,1.7,-8.6,-1.4
OCC[C@@H]1C[C@H](O)[C@@H](O)[C@]2(OCCc3cc(Cl)ccc32)O1,.,-10.6,.,.,19.8,0.3,3.5,.
COc1ccc(OCCNS(=O)(=O)c2ccccc2)cc1,-2.3,.,-17.9,i,-2.1,-1.3,-0.9,-4.6
O=C(NC1=NCCS1)c1ccccc1,0.3,-118.4,-6.5,i,-23.7,-1.2,-0.5,-11.4
CC(=O)N1CCN(c2ccccc2NC(=O)c2ccc(-c3cccc([N+](=O)[O-])c3)o2)CC1,10.8,-7.3,4.1,i,-18.4,0.1,-4.5,3.5
CCCCCCN1C[C@H](n2cc(C3CC3)nn2)[C@@H](O)C[C@@H]1c1ccc(Cl)cc1,.,10.9,.,.,-16.6,-0.7,1.0,.
O=C(COC(=O)c1cccc(O)c1)Nc1ccc(OC(F)F)cc1,-20.6,-1.5,0.5,i,.,0.8,-3.6,11.7
Cc1ccc(CN2CC(N3CCCC3)CS2(=O)=O)cc1 (stereo not given),.,59.6*,.,.,-8.0,0.3,0.7,.

# Two entries picked at random from those above:
SMILES,PABP FP inh,Env fusion inh,CSC inhib,Rce1 inhib,Yeast UUG start,MT1-MMP act inh,MT1-MMP act inh RFP,eIF4H FP inh
Cc1cc(=O)oc2c3c(cc(OCC(=O)N[C@H](C(=O)O)c4ccccc4)c12)OC(C)(C)CC3,11.8,.,-11.3,?,-1.5,0.2,-1.2,1.0
C[C@H](NC(=O)OCc1ccccc1)c1nnc([C@H](Cc2ccccc2)NC(=O)OC(C)(C)C)o1,-5.7,30.9,8.1,i,-11.2,1.7,-8.6,-1.4

# Continuation:
SMILES,PABP FP inh,Env fusion inh,CSC inhib,Rce1 inhib,Yeast UUG start,MT1-MMP act inh,MT1-MMP act inh RFP,eIF4H FP inh
Cn1ncc(N)c1C(=O)Nc1cccc(C(F)(F)F)c1,8.3,.,2.9,i,-12.6,7.5,2.8,-7.8
CCc1ccc(NC(=O)c2ccc3c(=O)n4c(nc3c2)CCCCC4)cc1,5.3,7.8,.,i,-8.8,4.9,-21.6,5.3
C[C@@H](C(=O)Nc1ccc2ccccc2c1)[C@H]1C[C@]1(C)[C@H](NC(=O)c1cnccn1)c1ccccc1,1.5,23.5,-1.1,i,-5.5,-1.6,-10.1,-5.9
Cc1ccccc1NC(=O)CCC(=O)OCC(=O)c1ccc(-c2ccccc2)cc1,2.0,-129.7,-4.9,i,-18.7,-4.1,2.3,-9.8
CCn1c2ccccc2c2nc3ccccc3nc21,6.0,.,-1.1,i,-17.4,4.2,-3.1,-7.2
Cc1ccc(NC(=O)CSc2nnc(-c3cc(C)[nH]n3)n2N)cc1,-2.6,-3.3,-5.4,i,-20.0,-4.0,3.3,-13.0
CC1(C)CC(=O)C([N+](=O)[O-])=C(NCCCO)C1,17.1,-2.2,0.5,i,-31.0,4.6,10.5,-0.5
O=C1Nc2ccccc2OC1CC(=O)N1CCCC1 (stereo not given),-2.5,-12.8,-4.3,i,-13.2,-3.3,2.4,-2.1
COc1cccc2sc3cc(NCCCN4CCOCC4)ccc3c(=O)c12,.,-246.9,-21.7,.,5.9,6.9,1.3,.
COc1ccc(CN2CC(C(N)=O)Oc3ccccc32)cc1F (stereo not given),-10.6,0.9,-7.5,.,-1.1,0.7,1.6,-4.2
CCOC(=O)N1CCC(N2CCN(Cc3ccc(F)c(F)c3)C(CCO)C2)CC1 (stereo not given),-10.5,19.6,-12.8,.,.,0.4,3.8,-2.5
Cc1ccccc1C(=O)NC(CC(C)C)C(=O)OCC(=O)c1c(N)n(C)c(=O)n(C)c1=O (stereo not given),-4.1,4.7,4.5,i,.,4.4,-1.4,-5.9
CCOC(=O)N1CCN(C(=S)Nc2ccccc2C(C)C)CC1,24.1,11.1,0.6,i,-20.6,-1.0,-2.3,7.6
COc1ccc(NC(=S)N2CCC(c3ccccc3)C2)cc1 (stereo not given),2.5,-38.0,.,i,-27.9,2.0,-0.5,-6.0
CCN(CC)CCNCC(=O)N1c2ccccc2CCc2ccc(NC(=O)OC)cc21,0.9,6.2,-3.5,i,2.8,4.2,-1.9,4.8
COC(=O)CSc1nnc(-c2ccoc2C)n1-c1ccc(OC)cc1,4.3,.,.,i,-3.0,-1.8,5.0,-0.5
CC1CCC(C(=O)NC(C(=O)Nc2ccccn2)C(C)C)CC1 (stereo not given),7.7,4.1,-2.6,i,2.5,-0.5,-2.3,2.9
CCCC(=O)c1cc2ccccc2oc1=O,-7.9,-50.3,0.9,i,-9.4,1.7,0.2,-2.1
Cc1ccccc1N1CCN(CCN2C(=O)CC(=C3c4ccccc4-c4ccccc43)C2=O)CC1,.,-20.2,-1.8,.,-4.0,-2.6,6.7,.
[O-]/C(=C(\C(=S)NCc1ccc2c(c1)OCO2)[n+]1ccccc1)c1ccc(Cl)s1,3.0,-14.0,-3.0,i,.,1.2,4.3,-6.0
CCOc1ccccc1C(=O)NCC(=O)NCCCc1ccccc1,2.1,10.2,-5.0,.,-4.0,3.7,2.7,3.6
CCN(C(=O)CSc1nc2ccc(Cl)cc2[nH]1)C1CCS(=O)(=O)C1 (stereo not given),.,-2.6,-8.7,.,3.0,0.9,0.5,.
O=C(CO/N=C/c1ccc(OC(F)F)cc1)NCc1ccc(F)cc1,12.5,-7.7,-4.7,i,.,3.0,1.5,4.8
CN1CCN(C(=O)c2cc(-c3ccco3)on2)CC1,8.5,-45.9,-11.3,i,-49.1,2.1,1.4,-3.4
COc1ccccc1C(=O)N/C(N)=N/c1nc2ccccc2o1,-10.2,.,18.0,i,-10.1,-3.8,0.7,2.3
O=C(Nc1nc2c(F)cc(F)cc2s1)c1ccccn1,-3.7,-54.2,42.2,i,-39.6,6.6,2.1,21.8
CCOP(=O)(OCC)C(Nc1cccc([N+](=O)[O-])c1)c1ccccc1 (stereo not given),-3.7,-44.3,-8.8,i,.,0.2,0.9,-5.0
CCOc1ccccc1-c1nnc(SCC(=O)NC2(C#N)CCCC2)o1,.,.,-12.9,.,-8.0,-1.5,-3.4,.
NS(=O)(=O)c1ccc(CCNC(=O)CNC(=O)c2ccccc2Br)cc1,-2.9,-6.5,-5.4,i,4.1,3.0,2.6,7.0
Fc1ccc(NC(=S)Nc2ccc(Cl)cc2)cc1,9.3,15.6,23.5,i,.,-0.9,-3.2,-7.2
COc1cc(NS(=O)(=O)c2cccc3nsnc23)c(C(=O)O)cc1OC,12.9,.,.,i,-16.7,-0.3,2.2,-0.5
O=C(c1cnccn1)N1CCc2ccccc2C1,-7.5,-5.0,1.7,i,6.6,0.7,2.1,9.0
CCN(Cc1ccccc1)C(=O)CSc1ccccc1C(=O)O,-6.7,-14.9,12.4,i,.,-7.2,2.9,-8.6
Cc1ccc(NC(=S)N(Cc2cccc(Br)c2)CC2CCC(C(=O)O)CC2)cc1 (stereo not given),-23.5,-3.2,-2.6,i,-28.9,3.3,1.1,0.5
Nc1cc(C(=O)OCC(=O)NCc2ccc(F)cc2)ccc1Cl,-8.4,-2.0,-6.0,i,.,1.6,-2.3,-7.2
COCC(=O)N(CCc1ccc(OC)c(OC)c1)Cc1cc2cc(C)ccc2nc1Cl,0.5,4.5,-9.0,i,.,0.4,-5.8,-4.9
O=C(O)c1ccc(NNC(=S)Nc2cc(C(F)(F)F)ccc2Cl)cc1,11.5,4.6,37.0,i,-64.3,1.8,0.4,1.8
Cc1c(C)n(CCO)c2ncnc(Nc3ccc(F)cc3)c12,-0.6,-1.8,14.1,i,-14.3,0.4,-0.4,-2.4
Cc1cc(C)c(NC(=O)CNC(=O)COC(=O)/C=C/c2cccs2)c(C)c1,.,.,3.6,i,-20.5,1.7,1.1,.
O=C(NCc1ccccc1)C(c1cccnc1)N(C(=O)c1ccccn1)c1ccc(F)cc1 (stereo not given),-1.5,6.1,-6.5,i,-20.9,0.7,3.0,-3.0
CC(Sc1nnc(C2CCCCC2)n1N)C(=O)NCc1ccc2c(c1)OCO2 (stereo not given),-6.5,.,5.1,i,-22.1,4.1,7.4,-5.4
COc1ccc(C(O)c2nc(-c3cccc(O)c3)cs2)cc1 (stereo not given),.,-8.8,.,.,-11.2,1.1,2.1,.
O=C(O)C(CC1CCCCC1)N1CCS(=O)(=O)CC1 (stereo not given),0.1,-4.5,-1.2,i,.,0.2,-2.5,6.9
N#Cc1c(NCCCO)nc(NCc2ccccc2)c2c1CCN(Cc1ccccc1)C2,?,.,-1.9,i,.,-12.1,-0.6,?
CCN(CC)CCn1c(=N)n(CCOc2ccccc2)c2ccccc21,4.1,56.2*,41.0,i,-10.3,-1.4,-2.8,-7.7
Cc1c(NC(=O)c2cc(-c3cccs3)on2)c(=O)n(-c2ccccc2)n1C,-3.5,.,6.2,i,.,-3.1,-0.9,-9.3
CCc1cccc2c1NC(=O)C21N2CCCC2C(C(=O)c2ccc3ccccc3c2)C12C(=O)Nc1ccccc12 (stereo not given),10.6,-18.2,50.4,i,-16.8,-23.6,-13.3,-1.2
C#CCOCCOCCOCCNc1nc(N2CCN(C(=O)C([C@@H](C)O)n3cc([C@@H](N)CCCCN)nn3)CC2)nc(N2CCN(C(=O)[C@H](CC(N)=O)n3cc(C(N)[C@@H](C)CC)nn3)CC2)n1 (stereo not given in full),.,6.8,.,.,2.8,1.5,5.7,.
CO/N=C(/CS(=O)(=O)c1ccc(Br)cc1)c1ccc(OC)cc1,15.2,.,11.2,i,5.0,4.1,-3.0,-1.7
CCC1=C(OC(=O)N(CC)CC)N2C(=O)OC(=NCc3ccccc3)[C@]2(C)[C@H]2C1=CC[C@H]1C(=O)NC(=O)[C@H]12,5.6,-33.4,-8.1,i,-25.1,-1.8,3.0,-5.1
